Screens (PubChem BioAssay)
2A StopGo: High Throughput Screening for Foot and Mouth Disease Virus Antivirals. human cells with a luciferase reporter of 2A StopGo recoding; control for the full effect not named in the record. Potency, µM (doses to about 57.9 µM), without a hit: top-dose signal change, negative = less light. 410,000 tested, 1.2% active; active = well fitted falling curve with a large enough effect; inconclusive = small, poorly fitted or top-dose-only effect; inactive = no such curve, though single readings can be large or run the other way; tested in HEK293T cells; note: % is set by controls: 0 for no effect and ±100 for the full control effect; nearly all actives have a fitted effect of over 45% in size; luciferase light after 4 h
SARS PLP yeast: qHTS of Yeast-based Assay for SARS-CoV PLP; Potency, µM (titrated, usually from 32.9 µM), for inactives: top-dose activity, positive = growth rescue; 330,000 tested, 0.19% active; S. cerevisiae expressing SARS-CoV PLpro, growth rescue; control for the full effect not named in the record; note: 0% is about no effect; nearly all actives have a fitted effect of over 55% in size; growth read by luminescence after 48 h
Marburg entry inh: qHTS for inhibitors of binding or entry into cells for Marburg Virus; Potency, µM (series often up to 37.8 µM), without a hit: top-dose activity change, negative = inhibition, usual class: inhibitors; Marburg virus pseudotyped entry inhibition, cell reporter; control for the full effect not named in the record; about a third of the inactives were read at about 46 µM; 300,000 tested, 1.8% active; active = well fitted inhibition curve with a large enough effect; inconclusive = small, poorly fitted or top-dose-only effect, or effect the other way; inactive = flat fitted curve, though single readings scatter; tested in HEK293 cells; about a fifth of its hits are not listed in these tables; note: % is set by controls: 0 for no effect and ±100 for the full control effect; luciferase read-out
Cruzain inh noDet: qHTS Assay for Promiscuous and Specific Inhibitors of Cruzain (without detergent); AID 1476, 2009; Cruzipain (Trypanosoma cruzi), P25779; purified cruzain, Z-FR-AMC fluorescence, no detergent; Potency, µM, for the others: max response, negative = inhibition, usual class: inhibitors; 200,000 tested, 2.3% active; active = well fitted curve in the direction sought with a large enough effect; inconclusive = small, poorly fitted or top-dose-only effect, or another doubt; inactive = no such curve, though single readings can be large; an effect the other way counts as inactive or inconclusive;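 note: plate controls were enzyme without inhibitor for no effect and buffer without enzyme for full effect; nearly all actives have a fitted effect of over 40% in size; top concentration of the series not given in the record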
Target sequence (P25779 123-467 limits assumed): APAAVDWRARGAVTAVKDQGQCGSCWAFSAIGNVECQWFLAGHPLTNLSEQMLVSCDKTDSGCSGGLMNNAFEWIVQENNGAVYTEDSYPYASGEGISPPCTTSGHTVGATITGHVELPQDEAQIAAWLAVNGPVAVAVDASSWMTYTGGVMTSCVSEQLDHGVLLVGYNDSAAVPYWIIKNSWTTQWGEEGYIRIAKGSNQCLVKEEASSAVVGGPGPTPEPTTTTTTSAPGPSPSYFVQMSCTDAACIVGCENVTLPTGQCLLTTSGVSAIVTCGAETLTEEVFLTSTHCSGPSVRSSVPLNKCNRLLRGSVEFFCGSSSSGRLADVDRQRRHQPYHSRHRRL
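Detergent-free condition (0.00005% Triton X-100) in acetate buffer pH 5.5 with DTT. 1.5 nM enzyme and compound were pre-mixed 15 min, then 2 uM Z-FR-AMC substrate added; reaction progress from fluorescence change between first and third reads (60 s).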
Cruzain inh Det: qHTS Assay for Promiscuous and Specific Inhibitors of Cruzain (with detergent); purified cruzain, Z-FR-AMC fluorescence, 0.01% Triton; Potency, µM, inactives show max response, negative = inhibition, usual class: inhibitors; 200,000 tested, 0.43% active; Cruzipain (Trypanosoma cruzi), P25779; AID 1478, 2009; active = well fitted curve in the direction sought with a large enough effect; inconclusive = small, poorly fitted or top-dose-only effect, or another doubt; inactive = no such curve, though single readings can be large; an effect the other way counts as inactive or inconclusive;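 note: plate controls were neutral wells for no effect and buffer without enzyme for full effect; nearly all actives have a fitted effect of over 40% in size; top concentration of the series not given in the record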
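Steps: dispense cruzain (1.5 nM final) in acetate buffer pH 5.5 with DTT and 0.01% Triton X-100; pin-transfer compounds; incubate 15 min RT; add Z-FR-AMC (2 uM final); read fluorescence every 30 s, using the 60 s intensity change.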
RE007 growth inh: qHTS Assay for Inhibitors of the HIV-1 protein Vpr. S. pombe RE007 Vpr strain, BacTiter-Glo ATP luminescence, 24 h; control for the full effect not named in the record. Potency, µM (series often up to 92.2 µM), for inactives: at the top dose activity change, negative = less growth. 360,000 tested, 0.21% active. AID 651644, 2012; active = well fitted falling curve with a large enough effect; inconclusive = small, poorly fitted or top-dose-only effect; inactive = no such curve, though single readings can be large or run the other way;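 note: % is set by controls: 0 for no effect and ±100 for the full control effect; nearly all actives have a fitted effect of over 50% in size; the assay follows cell death caused by Vpr and the record does not say whether a fall means rescue or toxicity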
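Fission yeast RE007 carrying one integrated HIV-1 vpr copy, seeded at OD 0.01 in PMG+AL medium with 23 nL pinned compound. Grown 24 h at 30 degrees; viability read by BacTiter-Glo luminescence after 5 min.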
NS1 inh: qHTS Assay for Inhibitors of Influenza NS1 Protein Function; S. cerevisiae slowed by influenza A NS1, growth recovery by OD600; Potency, µM (doses to about 46.1 µM), for inactives: top-dose activity, positive = more growth; 270,000 tested, 0.4% active; AID 2326, 2010; note: actives are rising curves; nearly all actives have a fitted effect of over 50% in size
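In this qHTS, NS1 from influenza A is expressed in budding yeast, where it slows growth. Cells are switched from glucose to 2% galactose medium (pH 6.0, -URA), treated with compound, and growth recovery is read at OD600.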
LASV entry inh: qHTS for Inhibitors of binding or entry into cells for Lassa Virus. Lassa virus pseudotype entry inhibition, cell reporter; control for the full effect not named in the record. Potency, µM (top dose mostly 37.9 µM), without a hit: at the top dose activity change, negative = inhibition, most hits filed as inhibitors. 300,000 tested, 1.2% active. AID 540256, 2011; active means well fitted inhibition curve with a large enough effect; inconclusive means small, poorly fitted or top-dose-only effect, or effect the other way; inactive means flat fitted curve, though single readings scatter; tested in HEK293 cells; note: % is set by controls: 0 for no effect and ±100 for the full control effect; nearly all actives have a fitted effect of over 50% in size; luciferase read-out
The depositor's hits bear a star; ? = inconclusive; · = no result given; & = joins results of further samples; [ ] = remark or other dose. Unless noted, calls come from the whole dose curve; as a rule, active means well fitted rising curve with a large enough effect; inconclusive means small, poorly fitted or top-dose-only effect; inactive means no such curve, though single readings can be large or run the other way. Potency is the fitted concentration of half-maximal effect.

SMILES | 2A StopGo | SARS PLP yeast | Marburg entry inh | Cruzain inh noDet | Cruzain inh Det | RE007 growth inh | NS1 inh | LASV entry inh
CCS(=O)(=O)N1CCCC(C(=O)c2ccc(OC)cc2C)C1 (stereo not given) | -13% | -1% | -9%[46.1 µM] | · | · | 10% | 1% | ?
CCOC(=O)c1c(S(=O)(=O)NCC(=O)Nc2ccc(C)c(Cl)c2)c(C)n(C)c1C | 24% | · | · | ? | -2.7% | · | · | 1%[46.1 µM]
CCOC(=O)c1ccc(OS(=O)(=O)c2ccccc2)c(OC)c1 | 45%[activator] | -28% | ? | 8% | -4.4% | 17% | -3% | ?
COc1ccc(-c2nn3c(COc4ccccc4)nnc3s2)cc1OC | 8% | -3% | -17% | ? | -8.3% | 10% | 5% | ?
COc1cc(/C=C2/C(=O)NC(=O)N(c3ccccc3)C2=O)ccc1O | -22% | 26% | ? | 4% | -1.3% | 7% | ? | -3%
Cc1c(Cl)cccc1NC(=O)Cn1nc(C)c2sc3ccccc3c2c1=O | -3% | · | ? | -1% | -8.2% | · | · | 28%[46.1 µM]
O=C(NCCCCNC(=O)c1c(F)c(F)c(F)c(F)c1F)c1c(F)c(F)c(F)c(F)c1F | 6% | -15% | 0%&0% | -11% | -1.9% | 23% | 7% | ?
O=C(CSc1cccc(C(F)(F)F)c1)Nc1cc(S(=O)(=O)N2CCCC2)ccc1Cl | 5% | 18% | ? | -5% | -7.3% | 16% | 16% | ?
COc1ccc2c(c1)-c1nc(/N=C/c3ccc(O)c(OC)c3)sc1CC2 | 2% | -51% | ? | 3% | -8.1% | ? | -29% | 5%
CC1CN=C(Nc2ccccc2)S1 (stereo not given) | · | 6% | 11% | -2% | -4.0% | -10% | 8% | 5%
Cc1ccc(C(=O)/C=C\Nc2ccc(C)c(C)c2)cc1 | 22% | -1% | ? | -21% | -8.6% | 8% | 9% | ?
Cc1coc2c(C)c3oc(=O)cc(-c4ccccc4)c3cc12 | -25% | · | 4%[46.1 µM] | · | · | -9% | · | -19%
Cc1ccc(NC(=O)C2CCCN2S(=O)(=O)c2ccc3c(c2)C(C)(C)C(=O)N3C)cc1 (stereo not given) | 0% | · | · | 22% | 0.6% | · | · | 2%[46.1 µM]
COc1ccccc1C(O)c1nccn1C (stereo not given) | 2% | 1% | 3%&3%[46.1 µM] | · | · | -7% | -5% | 1%
CCc1nn(CC(=O)N2CCCCC2)c(=O)c2cc3sc(C)cc3n12 | -12% | · | · | -9% | 0.1% | · | · | ·
Cc1cccc(NS(=O)(=O)c2cc(Cl)ccc2Cl)n1 | 48%[activator] | 1% | 3%[46.1 µM] | · | · | 7% | 1% | -17%[46.1 µM]
CC(=O)NC(CC(=O)NC(C)c1ccc(Cl)cc1Cl)c1ccccc1 (stereo not given) | 4% | 0% | -16%[46.1 µM] | · | · | 23% | · | -1%
COc1ccccc1-c1c(C)oc2c(CN3CCCC(C)C3)c(O)ccc2c1=O (stereo not given) | -18% | 1% | 5%[46.1 µM] | · | · | -6% | -2% | 1%[46.1 µM]
COC(=O)c1c(NC(=S)NNC(=O)c2ccc(Cl)s2)sc(C(=O)N(C)C)c1C | -10% | 2% | 5% | · | · | -5% | 16% | ?
O=C(Cn1ccnc1)c1ccc(Cl)cc1 | -23% | -1% | · | · | · | -3% | -1% | ·
O=C1CC(N2CCN(c3ccccc3F)CC2)C(=O)N1c1ccc(F)cc1 (stereo not given) | -22% | · | 1% | · | · | -10% | · | 20%
COc1ccc(OCC(O)CN2C(=O)c3ccccc3S2(=O)=O)cc1 (stereo not given) | 19% | 0% | 15%[46.1 µM] | 12% | 0.7% | 1% | -7% | 17%
CN(C)c1ccc(-c2nc3cnccn3c2Nc2ccc3c(c2)OCCO3)cc1 | 20% | 0% | · | · | · | 3% | 1% | ·
O=C(Nc1ccc(S(=O)(=O)N2CCOCC2)cc1)c1ccccc1F | 7% | 1% | · | · | · | 4% | -2% | ·
Cc1ccc(CNC(=O)c2c(Nc3c(C)cccc3C)sc(C(=O)c3ccccc3)c2N)cc1 | 0% | · | · | -18% | -1.7% | · | · | ?
COc1ccc(C(=O)Nc2ccnn2C2CCN(CCC(C)c3ccc(C)o3)CC2)cc1 (stereo not given) | -5% | 2% | ? | · | · | -21% | -10% | -15%
CCOC(=O)c1cc(NC(=O)CCC(=O)O)ccc1N1CCCCC1 | 0% | -1% | 5%[46.1 µM] | · | · | -15% | -2% | 12%[46.1 µM]
CCOc1ccc(Cn2nnc(C(=O)NCCc3ccc(Cl)cc3)c2N)cc1 | -10% | 6% | · | ? | 4.7% | -5% | 10% | ·
O=C(CCNC(=O)C1CCN(S(=O)(=O)c2ccccc2)CC1)Nc1ccccc1 | 17% | 6% | · | · | · | 8% | -1% | ·
CCC(C)N(C(=O)c1csnn1)C(C(=O)NC1CCCC1)c1ccccc1F (stereo not given) | 10% | -2% | ? | · | · | 3% | 3% | 20%[46.1 µM]
N#Cc1c(-c2ccc(Cl)cc2)c2c([nH]c1=S)CCCC2 | -19% | 0% | 2%[46.1 µM] | · | · | 16% | · | 4%
CC(=O)Nc1ccccc1-c1ccccc1[N+](=O)[O-] | 13% | · | 2%[46.1 µM] | · | · | 3% | · | 5%[46.1 µM]
O=C(CSCn1nnc2c(=O)[nH]c(Cc3ccc(F)cc3)nc21)Nc1ccccc1 | 20% | · | -2%[46.1 µM] | -3% | -2.2% | · | · | -8%[46.1 µM]
CC(=O)c1cc(C(=O)NC2CCCc3c2cnn3-c2cc(C)cc(C)c2)[nH]n1 (stereo not given) | 25% | 4% | -16% | · | · | 5% | 4% | -27%
COCCN=c1scc(-c2cc(OC)c(OC)c(OC)c2)n1/N=C/c1c(C)[nH]c2ccccc12 | ? | -19% | 11µM* | ? | -4.4% | 3% | ? | ?
Cn1c(-c2ccccc2)cnc1NCc1ccc(F)cc1 | 23% | 1% | · | · | · | -11% | 2% | ·
COc1ccc(-n2ccn(CC(=O)Nc3ccccc3C(F)(F)F)c(=O)c2=O)cc1OC | -1% | · | · | -3% | -0.3% | · | · | -10%[46.1 µM]
CCOc1ccc(C(=O)NCc2ccncc2)cc1 | -17% | -3% | -21% | 3% | 1.7% | -2% | 4% | -8%
CSc1nc(-c2ccc(Cl)cc2)c(C#N)c(=O)n1C | -9% | -1% | -11%[46.1 µM] | · | · | -1% | -5% | -3%
O=C(Nc1ccccc1N1CCN(C(=O)c2ccc(Cl)cc2)CC1)c1cc(Br)ccc1Cl | 3% | 3% | ? | 7.9µM* | 4.4% | 20% | ? | ?
COc1cccc(Cn2c(NCC(C)C)nc3c2c(=O)n(C)c(=O)n3C)c1 | -26% | -22% | 0% | -1% | -2.0% | 3% | -16% | 0%
CCOC(=O)C1C(=O)C=C(/C=C/c2ccc(N(C)C)cc2)CC1c1ccccc1 (stereo not given) | 1% | 28% | -9% | -17% | -4.1% | 10% | 11% | ?
CC1CCCC(C)N1C(=O)CSc1nnc(CSc2ncccn2)n1C (stereo not given) | -11% | 0% | 1% | -4% | 2.3% | 11% | -5% | 17%[14.3 µM]
CCOC(=O)C1CCN(C(=O)C(CC)c2ccccc2)CC1 (stereo not given) | -3% | 2% | · | · | · | 2% | -1% | ·
CCCCn1c(SCC(=O)Nc2cc(C)on2)nc2c1c(=O)n(C)c(=O)n2C | 10% | 5% | -3% | -1% | 0.1% | 2% | -4% | -4%
CCc1ccccc1NC(=O)NCc1ccc2c(c1)CCN2C(=O)c1ccccc1 | -23% | · | · | -16% | 2.3% | · | · | 18%[46.1 µM]
Cc1ccc(C(=O)O)cc1NC(=S)NCCc1ccccc1 | -1% | 10% | · | · | · | -12% | 2% | ·
CC1CCN(S(=O)(=O)c2cc(C(=O)N3CCN(c4ncccn4)CC3)ccc2Br)CC1 | 20µM* | 5% | ? | ? | -4.2% | -21% | -13% | ?
Cn1c(=O)c2c(nc(NN=C3CCCC3)n2C)n(C)c1=O | 39%[activator] | -2% | · | · | · | -21% | 5% | ·
CNS(=O)(=O)c1cc(NC(=O)CCNC(=O)c2ccco2)ccc1C | 66%[activator] | 5% | 9%[46.1 µM] | · | · | -25% | 9% | 34%[46.1 µM]
CCc1ccc(OCC(=O)NNC(=O)c2ccc(NC(=O)C3CC3)cc2)cc1 | -5% | -3% | 5% | · | · | 22% | 2% | -2%
COc1ccc(/C(=N\O)c2ncc(C(F)(F)F)cc2Cl)cc1 | -14% | -16% | ? | 0% | -6.4% | -11% | -6% | 6%
Cc1cccc(Nc2nc(N3CCCC3)nc(N3CCCC3)n2)c1 | -22% | 6% | ? | 1% | -6.0% | -17% | -11% | ?
Cc1ccccc1OCCOCCN1CCCCCC1 | -17% | 0% | 10µM* | · | · | 3% | · | 9%[46.1 µM]
Cn1nc(C(F)(F)F)c(-c2ccccc2)c1NC(=O)c1cccnc1 | -4% | 1% | · | · | · | -4% | 1% | ·
Cn1c(=O)c2c(nc(CN3CCc4ccccc4C3)n2Cc2ccc(F)cc2)n(C)c1=O | -25% | · | ? | · | · | 11% | -31% | -19%
CCOC(=O)N1CCN(C(=O)c2cc(OC)c(OC)c(OC)c2)CC1 | -8% | 4% | · | · | · | 12% | 7% | ·
O=c1c2nnn(-c3ccc(Cl)cc3)c2ncn1Cc1ccccn1 | -24% | -5% | 3%[46.1 µM] | · | · | 11% | · | 11%
COc1ccccc1C(=O)Nc1ccc2[nH]ncc2c1 | 27% | 17% | 2%[46.1 µM] | · | · | 3% | -11% | 5%[46.1 µM]
CC1=CC(C)(C)N(C(=O)CSc2nnc(N)s2)c2c(C)cc(C)cc21 | -27% | -11% | 2% | -7% | 1.3% | -18% | -5% | -7%
Cc1cc(C)c[n+](C[n+]2cc(C)cc(C)c2)c1 | -13% | 0% | 21%[46.1 µM] | · | · | -22% | 1% | 13%[46.1 µM]
